# KCNQ2 pot: potentiators of rat KCNQ2 potassium channel; O88943; CHO-K1 KCNQ2, FluxOR thallium flux fluorescence; active compounds read high; B-score at 10 µM; actives 0.54% (n = 310,000); AID 2239;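 active = fluorescence ratio B-score at least 3 SD of library B-scores, with initial fluorescence B-score within 3 SD, cut at about 5.3 in these data; same plate scores as AID 2156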;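 also: B-score of peak minus minimum over baseline fluorescence ratio after K+ and Tl+ stimulus; positive B-score means potentiation of KCNQ2 with more thallium influx and brighter signal; only the inactives scoring about 0 or higher are listed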
# Target sequence (O88943 whole entry, looked up): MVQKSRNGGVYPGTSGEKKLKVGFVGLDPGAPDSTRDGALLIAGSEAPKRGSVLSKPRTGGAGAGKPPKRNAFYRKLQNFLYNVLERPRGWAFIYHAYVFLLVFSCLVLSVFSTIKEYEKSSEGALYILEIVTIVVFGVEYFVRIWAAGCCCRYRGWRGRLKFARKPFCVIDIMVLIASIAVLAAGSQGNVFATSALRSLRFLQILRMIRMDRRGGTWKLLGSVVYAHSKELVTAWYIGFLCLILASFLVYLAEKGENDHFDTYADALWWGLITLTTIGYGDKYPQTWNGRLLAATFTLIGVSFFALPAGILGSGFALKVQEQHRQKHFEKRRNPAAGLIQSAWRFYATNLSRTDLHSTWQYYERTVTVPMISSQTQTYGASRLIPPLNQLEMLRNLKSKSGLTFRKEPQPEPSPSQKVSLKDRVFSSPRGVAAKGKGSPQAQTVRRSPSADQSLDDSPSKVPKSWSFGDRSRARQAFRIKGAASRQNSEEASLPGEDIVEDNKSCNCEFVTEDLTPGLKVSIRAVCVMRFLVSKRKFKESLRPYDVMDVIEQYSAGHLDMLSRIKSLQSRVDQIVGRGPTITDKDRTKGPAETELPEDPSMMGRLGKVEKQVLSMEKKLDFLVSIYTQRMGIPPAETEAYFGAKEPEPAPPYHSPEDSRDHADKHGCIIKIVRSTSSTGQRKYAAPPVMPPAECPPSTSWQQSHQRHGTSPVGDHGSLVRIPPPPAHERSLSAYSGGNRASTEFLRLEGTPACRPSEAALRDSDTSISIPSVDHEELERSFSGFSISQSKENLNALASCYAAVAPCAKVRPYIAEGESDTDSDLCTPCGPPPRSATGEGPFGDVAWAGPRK
# KCNQ2 pot baseline: second read-out of KCNQ2 pot, no call of its own (marks repeat the call); B-score; compound at 10 µM; measured here: initial fluorescence intensity artifact check;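 brightness before thallium and not channel activity; 0 = typical well and far values either way flag optical interference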
# Active calls of the source: *; & = joins results of further samples. This is a subset, so the mix of outcomes need not match the whole.
# Each structure is followed by: KCNQ2 pot	KCNQ2 pot baseline
- O=C1N=c2ccccc2=C1c1sc(=S)n(Cc2ccccc2Cl)c1O
→ 0.35	-1.1
- O=C(CNS(=O)(=O)c1ccccc1)N/N=C/c1ccc(O)cc1
→ 0.69	-1.7
- Cc1[nH]c2ccccc2c1Cc1nnc(SCC(N)=O)o1
→ 0.2	1.5
- CC(C)c1ccc(/C=N/NC(=O)CC(=O)NCc2ccccc2)cc1
→ 0.01	0.36
- Cc1cccc(C)c1NC(=S)NC(=O)c1ccc(Br)o1
→ 14*	1.1*
- CC(C)C1=NN(C(=O)c2cccnc2)C(O)(C(F)(F)F)C1 (stereo unspecified)
→ 0.87	-3.3
- COc1ccc(CN(CCCN2CCOCC2)S(=O)(=O)N(C)C)cc1OC
→ 0.38	-0.36
- CCOC(=O)N1CCN(C(=O)CNC(=O)c2nn(-c3ccc(OC)cc3OC)c(=O)c3ccccc23)CC1
→ 0.33	-1.4
- CC1(C)C=Cc2c(c3ccccc3[nH]c2=O)O1
→ 0.82	0.4
- CCN1C(=C(C#N)C#N)C=Cc2cc(C)ccc21
→ 0.08	-0.41
- C[C@@H]1NC(=O)[C@H](CCCN=C(N)N)NC(=O)c2cc([N+](=O)[O-])cc(I)c2NCCC[C@@H](C(N)=O)NC1=O
→ 0.05	-1.7
- COc1cc2c(cc1OC)C(NC(=O)c1ccc(C)cc1)CC2=O (stereo unspecified)
→ 1.3	-0.33
- Cn1nc(C(F)(F)F)c(/C=N/OC(=O)c2ccc(Cl)cc2)c1Cl
→ 2	0.04
- Cc1ccc(S(=O)(=O)NCc2ccccc2)s1
→ 0.09	-0.21
- Cc1cc(NC(=O)CCC(=O)N(Cc2cccs2)C(C(=O)NC2CCCC2)c2ccncc2)no1 (stereo unspecified)
→ 1.6	-0.09
- CCOc1ccc(C2CC(c3cccc(OC)c3OC)n3nnnc3N2)cc1Cl (stereo unspecified)
→ 1.3	-2
- O=C(COC(=O)c1cncc(Br)c1)NC1CCCC1
→ 0.89	-0.05
- Cc1ccc(NC(=O)COC(=O)C2CC2)c(Br)c1
→ 0.72	0.45
- CCOC(=O)C1=C(C)Nc2ncnn2C1c1cccs1 (stereo unspecified)
→ 1.1	-1.8
- Cc1ccc(-c2cc(C(=O)N3CCN(C(=O)c4ccco4)CC3)no2)cc1
→ 1.4	-0.6
- Cc1coc2c1c(C)cc1oc(=O)c(CC(=O)N[C@H](C(=O)O)C(C)C)c(C)c12
→ 1.9	0.35
- Cc1ccc(C)c(S(=O)(=O)N2CCN(C(=O)c3ccc(OCc4c(C)noc4C)cc3)CC2)c1
→ 0.15	-1.1
- CCN(CC)CCNC(=O)c1cn(CC)c2cc(N3CCN(C(=O)c4ccco4)CC3)c(F)cc2c1=O
→ 0.26	0.21
- CN1CCc2c(c3ccccc3n2C)C1
→ 0.76	1.5
- CCOC(=O)C(C(=O)OCC)C(C#N)c1ccccc1 (stereo unspecified)
→ 0.53	1.7
- Cc1oc(-c2ccccc2Cl)nc1CSCC(=O)N1CCCC1
→ 0.41	-0.97
- O=C1N=C(N2CCc3ccccc3C2)S/C1=C\c1cccc(O)c1
→ 1.4	0.03
- COc1ccc(C2=NN(C(=O)CCC(=O)O)C(c3ccc(F)cc3)C2)cc1 (stereo unspecified)
→ 0.26	0.8
- COc1ccc([C@H]2/C=C\CN(S(C)(=O)=O)[C@@H](C)C(=O)N2Cc2ccc(F)cc2)cc1
→ 0.62	0.9
- CC(=O)Nc1c(C(=O)Nc2ccc3c(c2)OCO3)oc2ccccc12
→ 1.8	-1.4

# 2 records drawn at random from those above, as already listed:
# Each structure is followed by: KCNQ2 pot	KCNQ2 pot baseline
- CCOC(=O)C(C(=O)OCC)C(C#N)c1ccccc1 (stereo unspecified)
→ 0.53	1.7
- CC(=O)Nc1c(C(=O)Nc2ccc3c(c2)OCO3)oc2ccccc12
→ 1.8	-1.4

# (further entries)
# Each structure is followed by: KCNQ2 pot	KCNQ2 pot baseline
- CC1(C(=O)N2CCN(C(=O)c3ccco3)CC2)CC1(Br)Br (stereo unspecified)
→ 0.03	1.5
- COc1ccccc1C(=O)Nc1ccc2c(c1)OCCO2
→ 0.97	-0.68
- Cn1c(=O)[nH]c(=O)c2c1nc(N1CCCCCC1)n2CC(N)=O
→ 2.4	-0.41
- CCN(CC)CCCN(Cc1cc2cc3c(cc2[nH]c1=O)OCCO3)C(=O)Nc1ccc(F)cc1
→ 1.6	-0.03
- Cn1nc2c3cc(F)ccc3n(Cc3ccc(F)cc3)cc-2c1=O
→ 0.64	-0.46
- Cc1cccc(C)c1N(CC(=O)NN=C1CCCCCC1)S(C)(=O)=O
→ 0.79	0.54
- COc1cccc(/C(=N/O)C2CC2c2ccc(Cl)cc2)c1 (stereo unspecified)
→ 6.7*	-0.12*
- Cn1c(=O)c2c(nc(CO)n2C)n(C)c1=O
→ 0.47	0.54
- CCOC(=O)n1ccc(C(=O)Nc2ccccc2F)n1
→ 1.4	-0.5
- CC(=O)Nc1ccc(N(CC(=O)NC2CCCCC2)C(=O)Cn2nnc(-c3ccccc3)n2)cc1
→ 0.58	2.3
- COc1ccc(C2CC(=O)C3=C(C2)Nc2ncnn2C3c2ccccc2C)cc1 (stereo unspecified)
→ 0.53	-0.86
- CC(=O)c1cn(CCOc2cc(C)ccc2C)c2ccccc12
→ 0.04	-0.76
- CCOC(=O)c1ccc(N2C(=O)C(CC(N)=O)N(NC(=O)c3cccc(F)c3)C2=S)cc1 (stereo unspecified)
→ 0.01	0
- CCCCOC(=O)Oc1ccc2c(=O)c(Oc3cccc(C)c3)coc2c1
→ 0.03	1.1
- C=CCC(NCc1ccco1)c1ccc(OC)cc1OC (stereo unspecified)
→ 0.63	-0.13
- CCN(CC)C(=O)c1sc(NC(=O)c2ccc(C)c([N+](=O)[O-])c2)c(C#N)c1C
→ 1.2	1.9
- O=C(NNC(=O)C12CC3CC(CC(C3)C1)C2)c1ccncc1
→ 1.2	-0.28
- O=[N+]([O-])c1cccc(/C=N\N=C2c3ccccc3-c3ccccc32)c1O
→ 1.2	-1.4
- Cc1[nH]c2ccccc2c1C(=O)C(=O)N1CCN(c2cccc(Cl)c2)CC1
→ 0.1	1.6
- CC(=O)SCC(C)C(=O)NCc1ccccc1 (stereo unspecified)
→ 0.43	0.21
- O=C(O)c1ccc(N=Cc2c(O)ccc3oc4c(c23)CCCC4)cc1
→ 1	0.81
- CCc1cc2c(N[C@@H](Cc3ccccc3)C(=O)O)ncnc2s1
→ 0.28	-0.57
- N#Cc1ccc(Oc2cccc3cccnc23)c([N+](=O)[O-])c1
→ 0.19	1
- N=c1c(S(=O)(=O)c2ccc(Cl)cc2)cc2c(=O)n3ccccc3nc2n1CC1CCCO1 (stereo unspecified)
→ 0.58	0.64
- O=C(O)CCC(=O)Nc1cccc(-c2nc3ccccc3o2)c1
→ 2.6	0.77
- COc1cccc(C(=O)NN/C(C)=C/C(=O)C(F)(F)C(F)(F)C(F)(F)F)c1
→ 8.5*	-0.75*
- CCCC[C@@H]1CN=C(N)N1CCCC
→ 0.8	-4.2
- CCOc1ccc(Cl)cc1CNc1nnnn1CC
→ 0.31	-1.4
- Cc1ccc(NC(=O)c2cc(S(=O)(=O)N3CCc4ccccc43)cn2C)cc1
→ 0.3	0
- CC(=O)Nc1ccc(S(=O)(=O)NNC(=O)C(=O)NNc2ccccn2)cc1
→ 0.75	-0.05

# By substructure, those above containing a cyano group (four)
# Each structure is followed by: KCNQ2 pot	KCNQ2 pot baseline
- CCN1C(=C(C#N)C#N)C=Cc2cc(C)ccc21
→ 0.08	-0.41
- CCOC(=O)C(C(=O)OCC)C(C#N)c1ccccc1 (stereo unspecified)
→ 0.53	1.7
- CCN(CC)C(=O)c1sc(NC(=O)c2ccc(C)c([N+](=O)[O-])c2)c(C#N)c1C
→ 1.2	1.9
- N#Cc1ccc(Oc2cccc3cccnc23)c([N+](=O)[O-])c1
→ 0.19	1

# Further records follow:
Structure	KCNQ2 pot	KCNQ2 pot baseline
COc1ccc(S(=O)(=O)N2CCC(N3CCCCC3)CC2)cc1	0.43	1.4
O=C(CCN1C(=O)/C(=C\c2cccs2)SC1=S)Nc1ccccn1	0.82	1.4
O=C(C1CC1)N1CCC(c2nc(-c3ccc(S(=O)(=O)NCC4CCCO4)cc3)no2)CC1 (stereo unspecified)	1.8	2.2
CSCCC(=O)Nc1ccc(C(C)=O)cc1	0.75	-0.54
COc1cc(NC(=O)COc2cc(O)c3c(c2)OC(C)(C)CC3=O)cc(OC)c1	0.04	-0.62
COc1ccc(CCNS(=O)(=O)c2cccc([N+](=O)[O-])c2)cc1OC	0.17	-1.7
CCOC(=O)c1ccc(NS(=O)(=O)c2ccc3c(c2)NC(=O)CCS3)cc1	0.5	-0.01
NC(=O)C(Cc1ccccc1)NS(=O)(=O)c1ccc(N2CCCC2=O)cc1 (stereo unspecified)	0.63	-2.8
CC(C)C(=O)Nc1cccc(C(=O)N2CCCCC2C)c1 (stereo unspecified)	1.4	-1.3
O=C(CNC(=O)c1cccc(F)c1)N/N=C/c1cccc([N+](=O)[O-])c1	0.21	-1.8
COc1ccccc1C(=O)C1CCCN(C(=O)C2CCCC2)C1 (stereo unspecified)	0.63	0.84
Nn1c(SCC(=O)N2CCCc3ccccc32)nnc1-c1ccc(Cl)cc1	0.87	-0.05
O=C(CCCN1C(=O)c2cccc3cccc(c23)C1=O)N1CCN(c2ncccn2)CC1	1.7	-1.4
Cc1cc(OCC(=O)NC2CC(C)(C)NC(C)(C)C2)c(C)cc1Br	0.02	-0.95
COCc1cc(CN2CCCC2)c(O)c2ncccc12	1.5	0.33
Cc1cccc(N2C(=O)CC(Sc3nccc(C)n3)C2=O)c1 (stereo unspecified)	0.91	-0.08
O=S(=O)(NCCOCCNS(=O)(=O)c1ccccc1)c1ccccc1	1.2	-1.6
C=C(C)c1cccc(C(C)(C)NC(=O)N2CCN(C)CC2)c1	0.09	-2.2
Cc1c(C(=O)NCCc2ccc(Cl)cc2)sc2nc3n(c(=O)c12)CCC3	0.82	-0.64
CCOC(=O)N1CC(=O)Nc2ccc(Br)cc2C1c1ccccc1 (stereo unspecified)	0.9	-0.88
O=C(O)c1ccc(N(Cc2ccccc2)S(=O)(=O)c2ccccc2)cc1	0.1&2	-1.8&-1.1
O=C(CSc1ccc2ccccc2c1)NC1CCCc2ccccc21 (stereo unspecified)	0.09	0.36
CC(=O)Nc1ccc(S(=O)(=O)Nc2ccccc2C(=O)N2CCCC2)cc1	0.02	-1.7
NC(=O)C1(N2CCCCC2)CCN(C(=S)NCCc2ccccc2)CC1	2	-0.08
Cc1ccc(C)c(NC(=O)CCCCCCCCCCC2COCCO2)c1 (stereo unspecified)	4.6	0.12
COc1ccccc1C(=O)Nc1nc2ccccc2[nH]1	0.57	-2.4
CCOC(=O)CN/C=C(\C#N)c1ccccc1	1.2	0.46
CCN1/C(=C\C=C2\C(=O)N(c3ccccc3)C(=S)N2C)Sc2ccccc21	0.68	0.77
Cc1cc(C)n2cc(CSc3nnc(N)s3)nc2n1	0.67	0.15
O=C(NCc1ccccn1)c1ccc(Cl)c(S(=O)(=O)N2CCCCC2)c1	1.7	-0.66
COc1cc(C(=O)O/N=C(\N)c2cccc([N+](=O)[O-])c2)cc(OC)c1OC	1.2	-0.67
Cc1nc(NC(=O)CCc2ccccc2)ccc1Br	2.4	-1.6
O=C(NCc1cccs1)c1cc(S(=O)(=O)N2CCOCC2)c(Cl)cc1Cl	0.39	-0.69
COc1ccc(Cl)c(NC(=O)C/C(C)=N/NC(=O)CCc2ccccc2)c1	0.7	-1.5
O=C(COC(=O)COc1ccccc1)Nc1cccc([N+](=O)[O-])c1	1.5	0.53
c1ccc(CCCN2CCN(c3ccccc3)CC2)cc1	0.4	-0.3
O=c1ccc2c([nH]1)CCCCCCCCCC2	0.74	-2.1
CCOc1ccc2nc(NC(=O)C(NS(=O)(=O)c3cccs3)C(C)C)sc2c1 (stereo unspecified)	0.57	0
c1ccc2c(c1)ncn2-c1ccc(-c2ccnc(-c3ccncc3)n2)cc1	1.3	1.1
Cc1nc2ccc(S(=O)(=O)c3ccc4nc(C)[nH]c4c3)cc2[nH]1	1.8	-0.32

# 2 entries from above, with the structure last:
KCNQ2 pot	KCNQ2 pot baseline	Compound
0.68	0.77	CCN1/C(=C\C=C2\C(=O)N(c3ccccc3)C(=S)N2C)Sc2ccccc21
1.2	1.9	CCN(CC)C(=O)c1sc(NC(=O)c2ccc(C)c([N+](=O)[O-])c2)c(C#N)c1C

# New compounds follow
Structure	KCNQ2 pot	KCNQ2 pot baseline
O=C(O)/C=C/C(=O)Nc1ccccc1C(=O)Nc1ccccc1	0.02	0.23
Cc1ccc2c(N)c(C#N)sc2n1	2	-0.07
O=C(Nc1ccc(N2CCOCC2)cc1)C1CCCN(S(=O)(=O)c2ccccc2)C1 (stereo unspecified)	1.9	-2.8
COc1nc(N=C(N)N)nc2c(C)cccc12	0.71	0.41
COc1ccc(C(=O)N2CCOC2CNC(=O)C(=O)NCc2ccc(F)cc2)cc1 (stereo unspecified)	0.2	-0.49
CC(=O)N(C)c1ccc(NC(=O)c2cnn(C)c2)cc1	0.57	0.84
Cc1oc(-c2ccc(Cl)cc2)nc1CS(=O)CC(=O)NCCCN1CC(C)CC(C)C1 (stereo unspecified)	0.13	-1.4
CCOc1ccc(NC2OC(CO)C(O)C(O)C2O)c([N+](=O)[O-])c1 (stereo unspecified)	0.52	-0.1
Cc1c(C(=O)N(C)C)sc(NC(=O)c2cccc([N+](=O)[O-])c2)c1C#N	1.8	-0.22
Nc1[nH]c(=O)[nH]c(=O)c1N=Nc1cccc(Cl)c1	1.3	-2.7
O=C(O)c1ccc(NC(=S)NC(=O)C(c2ccccc2)c2ccccc2)cc1	0.36	0.01
O=C(Cc1ccc(Cl)cc1)N/N=C/c1cccc(O)c1	0.28	0.03
CN(C)S(=O)(=O)c1cccc(NC(=O)CO/N=C(\N)c2ccccc2)c1	2.1	0.01
CCOC(=O)c1c(C)nc2sc3c(=O)n(-c4ccc(C(C)=O)cc4)nnc3c2c1-c1ccc(OC)cc1	0.51	-0.24
CN(Cc1ccccc1)Cc1nc2c(c(=O)n(C)c(=O)n2C)n1Cc1ccc(Cl)cc1	1.3	-0.05
